Screens from PubChem BioAssay.
StopGo reporter = lowers the luciferase signal of an FMDV 2A StopGo reporter; human cells with a luciferase reporter of 2A StopGo recoding; control for the full effect not named in the record; Potency, µM (top dose mostly 57.9 µM), inactives show at the highest dose signal change, negative = less light; hit rate 1.2% among 410,000; AID 1159524; active = well fitted falling curve with a large enough effect; inconclusive = small, poorly fitted or top-dose-only effect; inactive = no such curve, though single readings can be large or run the other way; tested in HEK293T cells; also: % is scaled to controls: 0 for no effect and ±100 for the full control effect; nearly all actives have a fitted effect of over 45% in size; luciferase light after 4 h
LASV entry inh = inhibitors of Lassa virus binding or cell entry; Lassa virus pseudotype entry inhibition, cell reporter; control for the full effect not named in the record; Potency, µM (titrated, usually from 37.9 µM), inactives show at the top dose activity change, negative = inhibition, most hits filed as inhibitors; hit rate 1.2% among 300,000; active means well fitted inhibition curve with a large enough effect; inconclusive means small, poorly fitted or top-dose-only effect, or effect the other way; inactive means flat fitted curve, though single readings scatter; tested in HEK293 cells; also: % is scaled to controls: 0 for no effect and ±100 for the full control effect; nearly all actives have a fitted effect of over 50% in size; luciferase read-out
RE007 growth inh = less growth of the S. pombe RE007 Vpr strain | hit rate 0.21% among 360,000 | S. pombe RE007 Vpr strain, BacTiter-Glo ATP luminescence, 24 h; control for the full effect not named in the record | Potency, µM (highest dose often 92.2 µM), for inactives: top-dose activity change, negative = less growth; active = well fitted falling curve with a large enough effect; inconclusive = small, poorly fitted or top-dose-only effect; inactive = no such curve, though single readings can be large or run the other way;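 also: % is scaled to controls: 0 for no effect and ±100 for the full control effect; nearly all actives have a fitted effect of over 50% in size; the assay follows cell death caused by Vpr and the record does not say whether a fall means rescue or toxicity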
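Fission yeast strain RE007, carrying one chromosomally integrated HIV-1 vpr copy, was seeded at OD 0.01 in PMG+AL medium with 23 nL pinned compound. After 24 h at 30 °C and 99% humidity, viability was read by BacTiter-Glo luminescence.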
Cruzain inh Det = blocks cruzain activity in presence of Triton detergent; P25779; purified cruzain, Z-FR-AMC fluorescence, 0.01% Triton; Potency, µM, inactives show max response, negative = inhibition, most hits filed as inhibitors; hit rate 0.43% among 200,000; active = well fitted curve in the direction sought with a large enough effect; inconclusive = small, poorly fitted or top-dose-only effect, or another doubt; inactive = no such curve, though single readings can be large; an effect the other way counts as inactive or inconclusive;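 also: plate controls were neutral wells for no effect and buffer without enzyme for full effect; nearly all actives have a fitted effect of over 40% in size; top concentration of the series not given in the record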
Target sequence (P25779 123-467 limits assumed): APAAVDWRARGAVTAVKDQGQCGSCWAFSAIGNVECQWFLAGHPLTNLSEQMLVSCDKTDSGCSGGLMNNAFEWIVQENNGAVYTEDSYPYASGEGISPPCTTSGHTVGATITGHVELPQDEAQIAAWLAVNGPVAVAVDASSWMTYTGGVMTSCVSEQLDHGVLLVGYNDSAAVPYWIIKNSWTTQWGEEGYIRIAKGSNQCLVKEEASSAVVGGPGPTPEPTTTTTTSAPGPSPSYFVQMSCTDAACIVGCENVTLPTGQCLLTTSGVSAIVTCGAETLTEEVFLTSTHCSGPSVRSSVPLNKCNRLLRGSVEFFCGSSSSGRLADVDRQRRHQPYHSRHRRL
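Read-out: AMC fluorescence (360 nm excitation, 450 nm emission), four reads over 2 min, first-to-third difference used. Conditions: cruzain 1.5 nM, Z-FR-AMC 2 uM, pH 5.5 acetate, 5 mM DTT, 0.01% Triton X-100.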
SARS PLpro yeast = blocks SARS-CoV papain-like protease in a yeast assay; S. cerevisiae expressing SARS-CoV PLpro, growth rescue; control for the full effect not named in the record; Potency, µM (titrated, usually from 32.9 µM), for inactives: at the top dose activity, positive = growth rescue; hit rate 0.19% among 330,000; AID 485353; also: 0% is about no effect; nearly all actives have a fitted effect of over 55% in size; growth read by luminescence after 48 h
MARV entry inh = inhibitors of Marburg virus binding or cell entry; Marburg virus pseudotyped entry inhibition, cell reporter; control for the full effect not named in the record; about a third of the inactives were read at about 46 µM; Potency, µM (series often up to 37.8 µM), without a hit: top-dose activity change, negative = inhibition, actives largely listed as inhibitors; hit rate 1.8% among 300,000; AID 540276; active = well fitted inhibition curve with a large enough effect; inconclusive = small, poorly fitted or top-dose-only effect, or effect the other way; inactive = flat fitted curve, though single readings scatter; tested in HEK293 cells; about a fifth of its hits are not listed in these tables; also: % is scaled to controls: 0 for no effect and ±100 for the full control effect; luciferase read-out
Cruzain noTriton = inhibitors of Trypanosoma cruzi cruzain without detergent; P25779; purified cruzain, Z-FR-AMC fluorescence, no detergent; Potency, µM, for the others: max response, negative = inhibition, usual class: inhibitors; hit rate 2.3% among 200,000; AID 1476; active = well fitted curve in the direction sought with a large enough effect; inconclusive = small, poorly fitted or top-dose-only effect, or another doubt; inactive = no such curve, though single readings can be large; an effect the other way counts as inactive or inconclusive;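 also: plate controls were enzyme without inhibitor for no effect and buffer without enzyme for full effect; nearly all actives have a fitted effect of over 40% in size; top concentration of the series not given in the record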
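Detergent-free condition (0.00005% Triton X-100) in acetate buffer pH 5.5 with DTT. 1.5 nM enzyme and compound were pre-mixed 15 min, then 2 uM Z-FR-AMC substrate added; reaction progress from fluorescence change between first and third reads (60 s).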
NS1 inh = blocks influenza NS1 protein function; hit rate 0.4% among 270,000; S. cerevisiae slowed by influenza A NS1, growth recovery by OD600; Potency, µM (titrated, usually from 46.1 µM), without a hit: at the highest dose activity, positive = more growth; also: actives are rising curves; nearly all actives have a fitted effect of over 50% in size
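Recovery from NS1-induced slow growth read by OD600 in budding yeast switched to galactose assay medium (pH 6.0, -URA) at 1:100 dilution. Compound 23 nl per well; the matching strain lacking NS1 serves as control.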
Starred values were filed as active, the others as inactive; ? = inconclusive; · = not tested or not shown; & = joins results of further samples; [ ] = another dose, or the depositor's remark. Unless noted, calls follow the shape of the dose curve; as a rule, active means well fitted rising curve with a large enough effect; inconclusive means small, poorly fitted or top-dose-only effect; inactive means no such curve, though single readings can be large or run the other way. Potency is read from the fitted curve at half-maximal effect. Random draw from the library (roughly 4.7% active in at least one column).

SMILES | StopGo reporter | LASV entry inh | RE007 growth inh | Cruzain inh Det | SARS PLpro yeast | MARV entry inh | Cruzain noTriton | NS1 inh
COc1ccc(CNCc2ccc([N+](=O)[O-])cc2)cc1OC | -22% | · | 3% | · | 1% | · | · | 12%
COc1ccc(S(=O)(=O)N2CCN(C)CC2)cc1NC(=O)c1ccccc1F | 24% | 0% | -1% | · | 13% | -4%[46.1 µM] | · | 7%
O=C(O)c1ccc2c(=O)n3c(nc2c1)/C(=C/c1cccc(O)c1)CC3 | -17% | · | -4% | · | 1% | · | · | 3%
COc1ccc(S(=O)(=O)N2CCCC2CNC(=O)C(=O)Nc2ccc(C)cc2)cc1 (stereo not given) | 0% | ? | -13% | · | -3% | ? | · | ·
Cc1ccc(S(=O)(=O)n2nccc2-c2c(-c3ccc(Cl)cc3)noc2C)cc1 | -20% | ? | 1% | · | 1% | ? | · | 2%
O=C(NCc1cccnc1)/C(=C\c1ccc(-c2ccc(Cl)c(Cl)c2)o1)S(=O)(=O)c1ccccc1 | ? | ? | -5% | -12% | -21% | ? | 24% | ?
O=c1c2ccccc2[nH]c(=S)n1Cc1cccs1 | 45%[activator] | 1% | 41% | -3.2% | 19% | 8% | 25µM* | 27%
CC(=O)c1c(OC(=O)c2ccco2)c2ccccc2n1C | -1% | 12% | -2% | -8.6% | -2% | -2% | -15% | -21%
Cc1ccc(NC(=O)CN2C(=O)c3ccccc3Sc3ccc(C(=O)N4CCOCC4)cc32)cc1C | -2% | ? | · | -7.6% | · | · | 7% | ·
Cc1cccc(C)c1OCC(=O)NCc1nnc(SCC(=O)NC2CCCCC2)n1C | -15% | 15% | -11% | -1.7% | -3% | 0% | -6% | -2%
CCc1ccc(C(=O)CN(C#N)c2nc(C)cc(C)n2)cc1 | -11% | ? | 4% | -3.5% | -3% | 11µM* | -17% | -31%
Cc1ccn2c(NCc3ccc4c(c3)OCO4)c(-c3ccc(O)cc3)nc2c1 | 16% | 2% | -3% | -7.5% | 7.9µM* | 1% | 2% | 9%
Cc1ccc(S(=O)(=O)NCC(=O)N2CCCCC2)cc1 | 7% | · | 6% | 4.4% | 1% | · | 5% | 16%
COc1ccc(CC(=O)Nc2ccc(S(=O)(=O)N3CCCCC3)cc2)cc1OC | -18% | ? | 2% | · | 9% | ? | · | 5%
Cc1[nH]n(-c2ccccc2)c(=O)c1C(c1cccc([N+](=O)[O-])c1)c1c(C)[nH]n(-c2ccccc2)c1=O | ? | ? | -11% | -10% | -9% | -4% | 9% | 18%
COc1ccccc1C(CNC(=O)c1ccc(NS(=O)(=O)c2ccc(F)c(C)c2)cc1)N(C)C (stereo not given) | -7% | 6% | -2% | · | 5% | -18% | · | 1%
NNC(=O)Cc1csc(-c2ccccc2)n1 | 1% | · | 8% | · | 0% | · | · | 3%
O=C(O)CNC(=O)CC12CC3CC(CC(C3)C1)C2 | -21% | 10% | -6% | 6.6% | -1% | ? | -6% | 15%
O=c1cc(COc2ccccc2Cl)nc2scc(-c3ccccc3)n12 | -14% | 2%[46.1 µM] | · | -6.8% | · | ? | -3% | ·
O=C(O)/C=C\c1cc2c(cc1[N+](=O)[O-])OCO2 | -2% | -17% | -12% | · | 0% | -2%[46.1 µM] | · | -1%
Cc1ccc(-c2csc(N3C(=N)SCC3=O)n2)cc1 | 37%[activator] | 9% | -10% | · | 3% | 2%[46.1 µM] | · | 2%
O=C(Cn1c(=O)n(-c2ccccc2)c(=O)c2c3c(sc21)CCC3)c1ccc(F)cc1 | -15% | ? | · | -5.9% | · | ? | ? | ·
COC(=O)C1=C(C)NC2=C(C(=O)CC(C)(C)C2)C1c1cnn(C)c1C (stereo not given) | 19% | ? | 1% | -3.8% | 1% | -12% | 0% | 9%
COC(=O)CN1C(=O)C(C)(C)Oc2ccc(C(=O)Nc3ccccc3F)cc21 | 26% | 17%[46.1 µM] | 8% | · | -2% | 14%[46.1 µM] | · | 5%
COc1ccccc1NC(=S)N1CCCCCC1 | 19% | · | -14% | · | 0% | · | · | 1%
CCCOc1cccc(C2/C(=C(/O)c3ccc(OC)cc3)C(=O)C(=O)N2CCN(C)C)c1 (stereo not given) | 8% | 1% | 6% | -1.4% | -6% | 6% | -12% | 8%
COc1ccccc1OC(C)C(=O)Nc1ccc(-c2nc3ccccc3s2)cc1 (stereo not given) | 14% | 1%[46.1 µM] | · | -1.2% | · | ? | -9% | ·
CC(=O)c1sc2c(c1OC(=O)c1ccc(Cl)cc1Cl)c(=O)n(-c1ccccc1)c(=S)n2-c1ccccc1 | ? | · | 4% | · | 2% | · | · | ?
COc1ccc(S(=O)(=O)N(CC(=O)O)c2ccccc2)cc1 | · | 7% | -9% | 6.3% | 3% | 13% | -3% | -9%
O=C1c2ccccc2C(=O)N1c1cccc2ccccc12 | -14% | 1% | 2% | · | 5% | · | · | -14%
Cc1ccc(C)c(NC(=O)Cn2nc(C)c3ccccc3c2=O)c1 | 20% | 3% | 6% | -2.1% | 2% | 4% | ? | -5%
Cc1nc(SCC(=O)c2ccc(F)cc2)n[nH]1 | 22% | 14% | -16% | 1.4% | 5% | 4%&4% | -4% | -5%
O=c1c2oc3ccccc3c2n(Cc2cccc(Cl)c2)c(=O)n1Cc1ccco1 | ? | 10%[46.1 µM] | · | -4.6% | · | · | -5% | ·
CCOc1ccc(-c2nn(CC(=O)NC3CCCC3)c3c2cnc2ccc(C)cc23)cc1 | 12% | 0%[46.1 µM] | · | -2.4% | · | · | 10% | ·
COc1ccc(N=C2S/C(=C\c3cccs3)C(=O)N2CC(C)C)cc1 | -16% | -15% | -5% | -3.6% | -4% | -11% | -9% | -1%
CC1=NN(c2nc(-c3ccc(F)cc3)cs2)C(=O)C1 | -12% | -4% | -21% | -0.4% | 2% | 16% | 0% | 13%
COc1ccc(CNC(=O)COC(=O)CO/N=C(\C)c2ccc3c(c2)OCO3)cc1 | -6% | 17% | -11% | · | · | -21% | · | ·
O=C(CCCCCNC(=O)N1CCn2c1nc1ccccc12)NCc1ccc(F)cc1 | -6% | -6%[46.1 µM] | -7% | · | 3% | 2%[46.1 µM] | · | -16%
CCCN1CCN(c2ncnc3scc(C4COc5ccccc5O4)c23)CC1 (stereo not given) | ? | ? | -8% | · | 1% | ? | · | -1%
Cc1cccc(OCC(=O)N2CCN(Cc3ccc([N+](=O)[O-])cc3)CC2)c1 | ? | 7%[46.1 µM] | -4% | · | -1% | -6%[46.1 µM] | · | 4%
Cc1ccc(CNC(=O)C2CC(c3ccc([N+](=O)[O-])cc3)=NO2)cc1 (stereo not given) | 44%[activator] | · | 6% | -0.6% | 5% | · | -8% | -6%
CCCc1cnc(NCCNCC(O)COc2ccc(Cl)c(Cl)c2)nc1 (stereo not given) | ? | -28% | 3% | · | 7% | ? | · | 8%
CCCCn1ccc(O)c(Cc2ccc(F)cc2)c1=O | -4% | -12% | -1% | -3.4% | -2% | 2%[46.1 µM] | -3% | -2%
O=C(NC(=S)Nc1cccc(Cl)c1)c1cncc(Br)c1 | 16% | ? | 25% | · | · | -26%[46.1 µM] | · | ·
O=c1[nH]cnc2c1N1CCC2CC1 | -6% | -4% | 26% | 2.0% | -5% | 3%[46.1 µM] | ? | ?
COc1ccc(CNC(=S)Nc2ccc(F)c(Cl)c2)cc1 | 26% | -7% | 6% | · | 0% | 10%[46.1 µM] | · | 1%
Cc1c(Cl)c([N+](=O)[O-])nn1CC(=O)Nc1ccc2c(c1)OCO2 | -5% | 1% | 7% | -5.3% | -1% | ? | -1% | 6%
COc1ccc(S(=O)(=O)n2nc(-c3ccco3)nc2NCc2ccc(N(C)C)cc2)cc1 | 22% | ? | · | -3.9% | · | ? | -14% | ·
CS(=O)(=O)c1cccc(C(=O)Nc2cccc(S(=O)(=O)N3CCCC3)c2)c1 | -20% | -25% | 25% | · | -1% | -29%[46.1 µM] | · | ·
COc1cc(CC(=O)NCc2ccco2)cc(OC)c1OC | -3% | -7% | 12% | 6.4% | 15% | -21% | 15% | 3%
Further entries
SMILES | StopGo reporter | LASV entry inh | RE007 growth inh | Cruzain inh Det | SARS PLpro yeast | MARV entry inh | Cruzain noTriton | NS1 inh
C=C(c1ccccc1C)[n+]1ccccc1 | -5% | 17% | -15% | · | 3% | -11% | · | 7%
CCn1nc(C)c(/C=N/NC(=O)Cn2nnnc2N)c1C | -7% | ? | -16% | · | 1% | -12% | · | 3%
CC(C)(C)c1ccc(N=C2SCC(=O)N2Cc2cccs2)cc1 | 11% | -7% | 7% | · | -4% | ? | · | -1%
COc1ccc(C(=O)NC(C(=O)N2CCc3ccccc32)C(C)C)cc1 (stereo not given) | -8% | 11% | -6% | -1.6% | -1% | 18% | -7% | ?
O=C(CSc1nc2cc(Cl)ccc2s1)NCc1ccc2c(c1)OCO2 | ? | -2% | 9% | 2.6% | 16% | 1% | -10% | 33%
Cc1nnc(SCC(=O)Nc2nsc(-c3ccccc3)n2)s1 | 24% | ? | 1% | -1.5% | -6% | -4% | -10% | 3%
COC(=O)C(c1cc(OC)c(O)c(OC)c1)(N1CCNC(C)C1)C(F)(F)F (stereo not given) | 4% | -11% | -29% | 0.7% | -8% | -14% | -2% | -13%
O=C(/C=C/c1ccc(F)cc1)NCCCn1ccnc1 | 5% | · | -14% | · | -1% | · | · | -1%
COc1ccc(Oc2cc(F)nc(N)n2)cc1 | 28% | -7% | 0% | 1.0% | 1% | -5% | 3% | 13%
COc1ccc(N(CC(=O)O)S(C)(=O)=O)cc1OC | 3% | 3% | -17% | 17% | 1% | 22% | 7% | 5%
CCOc1ccc(-c2cccc(NC(=O)COc3ccccc3)c2)nn1 | 53%[activator] | · | 7% | · | -3% | · | · | -3%
O=[N+]([O-])c1ccc(Sc2nccn2Cc2ccccc2)c([N+](=O)[O-])c1 | 28µM* | 5% | -3% | 1.3% | -9% | ? | -13% | -13%
